UCH37 DUB inh: inhibitors of human deubiquitinating enzyme UCH37 | hit rate 0.33% among 330,000 | purified proteasome/UCH37, Ub-AMC cleavage fluorescence | AID 588478 | inhibition, % (no concentration beside the values) | Q9Y5K5;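 active means mean of two replicates above 20%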;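 further: 0% = compound-free wells with enzyme and 100% = wells lacking proteasome; stock transfer was 100 nL into about 20 µL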
Target sequence (Q9Y5K5 whole entry, looked up): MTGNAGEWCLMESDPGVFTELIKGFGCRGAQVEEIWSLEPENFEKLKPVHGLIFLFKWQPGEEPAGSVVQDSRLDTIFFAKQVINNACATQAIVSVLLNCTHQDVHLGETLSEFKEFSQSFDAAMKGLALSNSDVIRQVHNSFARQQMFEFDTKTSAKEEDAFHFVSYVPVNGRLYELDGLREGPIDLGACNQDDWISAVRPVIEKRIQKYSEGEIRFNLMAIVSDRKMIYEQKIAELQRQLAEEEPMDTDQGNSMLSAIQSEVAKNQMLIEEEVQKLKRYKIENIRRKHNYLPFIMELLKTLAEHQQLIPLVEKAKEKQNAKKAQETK
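system = Proteasome-associated human UCH37 deubiquitinase | amount = 0.15 nM proteasome as dispensed | medium = pH 7.4 Tris-HCl (50 mM) with ovalbumin, ATP-MgCl2, DTT | incubation = 30 min preincubation with enzyme, 25 min cleavage at room temperature | detection = AMC fluorescence 355/460 nm | read-out basis = percent inhibition | controls = no-proteasome and no-compound wells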
Beta2AR agonist: agonists of human beta-2 adrenergic receptor inducing internalization | Am2.2-beta2AR cells, FAP receptor internalization, flow cytometry; reference of the scale not given here | response, % (no concentration beside the values) | AID 504454 | P07550 | hit rate 0.43% among 340,000;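 active means response above a set limit, near 3 SD of response in nonfluorescent compounds, cut at about 42% in these data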;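 further: stock transfer was 100 nL into about 11 µL; a reference agonist was the positive control; negative values mostly stem from fluorescent compounds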
LANA-H2A inh: blocks KSHV LANA binding to histone H2A/H2B; Q9QR71; inhibition, % (concentration not given with the values); hit rate 0.6% among 320,000; AID 2629; cell-free LANA-H2A/H2B peptide, fluorescence polarization; in the data active means inhibition mostly above about 10%, no sharp cut-off; inactive means mostly below about 6.7%;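 further: stock transfer was 7.5 nL into about 10 µL; 0% = median of vehicle wells and 100% = median of positive control wells; one replicate is shown; the record names a cut of 25% in any replicate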
FGF22 binding: shifts melting point of recombinant human FGF22; hit rate 1.5% among 340,000; Q9HCT0; recombinant FGF22 thermal shift, SYPRO orange fluorescence; percent of sucrose octasulfate shift, DMSO zero; calls only at 9.99 µM;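 active means melting point raised past a set limit in the mean and every replicate; inconclusive means no clear call; three in four hits are not shown here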
Target sequence (Q9HCT0 whole entry, looked up): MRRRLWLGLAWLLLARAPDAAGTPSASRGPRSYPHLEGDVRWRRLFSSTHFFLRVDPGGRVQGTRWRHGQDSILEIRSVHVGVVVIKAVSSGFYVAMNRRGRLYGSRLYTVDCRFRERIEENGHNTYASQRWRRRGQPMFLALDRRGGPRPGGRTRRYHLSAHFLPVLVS
E coli growth: inhibitors of Escherichia coli growth; OD600, 23 h; active compounds read low; OD600 absorbance (test concentration not listed); hit rate 0.21% among 330,000;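 active means OD600 absorbance below the run mean of sample wells minus 3.6 SD, in any replicate, cut at about 0.56 in these data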;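 further: stock transfer was 300 nL into about 60 µL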
ALR H2O2 inh: inhibitors of human sulfhydryl oxidase ALR; P55789; hit rate 3.8% among 290,000; purified ALR, DTT oxidation, H2O2 HRP-luminol luminescence; inhibition, % (no concentration beside the values);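 active means mean and each replicate at 75% or more; inconclusive means only one of the two met; inactive means neither met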;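 further: stock transfer was 7.5 nL into about 7.5 µL; 0% = neutral wells and 100% = wells with inactivated enzyme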
HNF4A DNA FP: change in binding of human HNF4 alpha to DNA; P41235; HNF4a-FITC DNA binding, fluorescence polarization, 1 h; activity change, % at 10 µM; hit rate 0.3% among 360,000; in the data active means activity change above about 30%, passing the limit was not always enough;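 further: controls were the assay level and a saturating level of protein; the project sought stronger binding though the title names inhibitors; some compounds called inactive have numbers as strong as hits; positive values seem to mean higher polarization but the record does not say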
Target sequence (P41235 whole entry, looked up): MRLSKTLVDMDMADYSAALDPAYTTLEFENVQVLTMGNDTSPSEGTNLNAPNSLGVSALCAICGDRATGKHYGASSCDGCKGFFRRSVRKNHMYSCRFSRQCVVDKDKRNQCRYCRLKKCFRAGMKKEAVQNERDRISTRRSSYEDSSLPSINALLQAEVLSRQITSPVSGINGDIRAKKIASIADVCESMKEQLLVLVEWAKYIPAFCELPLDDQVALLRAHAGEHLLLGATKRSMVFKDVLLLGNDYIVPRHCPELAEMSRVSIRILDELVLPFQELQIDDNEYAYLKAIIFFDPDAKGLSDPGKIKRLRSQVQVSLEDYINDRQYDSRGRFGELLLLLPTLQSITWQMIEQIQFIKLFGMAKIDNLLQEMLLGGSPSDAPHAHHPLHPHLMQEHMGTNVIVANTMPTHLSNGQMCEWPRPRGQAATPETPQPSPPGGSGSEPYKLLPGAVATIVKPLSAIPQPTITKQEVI
* marks the source's active call; other numbers are inactive results; i = inactive; ? = inconclusive; . = no result given. The list is partial, so the mix of outcomes need not match the whole.

Results follow in this order: UCH37 DUB inh	Beta2AR agonist	LANA-H2A inh	FGF22 binding	E coli growth	ALR H2O2 inh	HNF4A DNA FP
> O=C(CCSc1ccccc1)Nc1ncccn1
  -3.1	-5	-1.7	i	0.7	-6	3.0
> O=c1[nH]c(C(F)(F)F)nc2c1nnn2Cc1ccccc1F
  -1.1	1	-1.9	.	0.72	-4	1.0
> COCCNc1ncnc2c1cnn2-c1ccc(Cl)cc1
  -0.9	17	20*	.	0.65	-11	1.2
> O=C(NCCc1ccccc1)[C@@H]1CC=C[C@@H]2CCN(Cc3ccccc3)C(=O)[C@@H]21
  -0.4	-3	-2.7	.	.	-14	1.2
> CCN(CC)CCP(=O)(c1ccccc1)c1ccccc1
  3.2	-4	-1.4	.	0.7	-2	-3.3
> CCOc1cc2[nH]c(=O)n(CCCCC(=O)NCc3ccco3)c(=O)c2cc1OCC
  -6.4	1	5.6	.	0.72	-3	4.1
> O=C(c1cc(Cl)ccc1[N+](=O)[O-])n1cnc2ccccc21
  4.8	0	4.5	i	0.66	-15	2.0
> CCC(=O)Oc1cccc(C(=O)Nc2ccc(-c3nnc(-c4ccco4)o3)cc2)c1
  -4.5	16	0.2	.	0.73	-16	-0.3
> COCCNC(=O)CN1C(=O)COc2ccc(Cl)cc21
  5.3	1	-4.5	i	0.73	-14	0.5
> O=C(C1=C[C@@H](C2CCCCC2)C[C@@H](OCc2ccc(CO)cc2)O1)N1CCN(Cc2ccccc2)CC1
  1.2	9	1.1	i	.	-4	3.3
> Cc1ccc(C2(C)NC(=O)N(CC(=O)N3CCN(S(=O)(=O)c4cccc(F)c4)CC3)C2=O)cc1 (stereo unspecified)
  1.6	-8	-6.2	i	0.67	0	4.3
> COc1ccc(C2c3c(ncn(CCCO)c3=N)Oc3ccc4ccccc4c32)cc1OC (stereo unspecified)
  5.6	-6	3.6	i	0.69	-31	1.8
> CCOC(=O)c1[nH]c2ccc(OC)cc2c1NC(=S)N1CCN(C(=O)OCC)CC1
  7.0	-12	2.1	i	0.71	.	0.1
> O=C(CN1CCN(c2nc(-c3ccc(Cl)cc3)cs2)CC1)NCc1ccco1
  1.0	11	.	.	0.7	.	7.0
> CC(C)[C@H]1COCCS(=O)(=O)N1Cc1ccc(Cl)cc1
  2.8	-9	-0.1	i	0.79	-5	1.3
> COc1ccc(Cl)cc1N(C(=O)c1ccco1)C(C(=O)NC1CCCC1)c1ccncc1 (stereo unspecified)
  1.7	1	-2.4	i	0.68	-1	3.4
> Nc1ccc(-n2nnnc2-c2ccco2)cc1
  -1.7	-4	5.1	.	0.7	.	-2.3
> CC(=O)Nc1ccc(C(=O)NNC(=O)C2CC2)cc1
  0.1	5	-0.3	i	0.75	-16	0.2
> Cc1ccc(C)c(N2CCN(c3ccc([N+](=O)[O-])cn3)CC2)c1
  4.3	1	-3.0	i	0.66	-5	0.5
> O=C(NNC(=O)c1ccc2ccccc2c1)c1ccc(Cl)c(Cl)c1
  0.5	-3	.	i	0.69	.	1.1

A second format for some results above.
SMILES,UCH37 DUB inh,Beta2AR agonist,LANA-H2A inh,FGF22 binding,E coli growth,ALR H2O2 inh,HNF4A DNA FP
CC(C)[C@H]1COCCS(=O)(=O)N1Cc1ccc(Cl)cc1,2.8,-9,-0.1,i,0.79,-5,1.3
COc1ccc(Cl)cc1N(C(=O)c1ccco1)C(C(=O)NC1CCCC1)c1ccncc1 (stereo unspecified),1.7,1,-2.4,i,0.68,-1,3.4

(more compounds)
Results follow in this order: UCH37 DUB inh	Beta2AR agonist	LANA-H2A inh	FGF22 binding	E coli growth	ALR H2O2 inh	HNF4A DNA FP
> COCCn1c(C)cc(C(=O)CSc2ncn[nH]2)c1C
  1.2	2	3.5	.	0.66	37	1.2
> N#Cc1ccsc1NC(=O)CSc1ncn[nH]1
  2.6	4	11	.	0.71	-3	-3.9
> COc1c(C)cc(Br)cc1C(=O)Nc1ccc(C)cc1[N+](=O)[O-]
  1.5	-3	-1.4	.	0.65	.	1.1
> CCCn1nc(C(=O)NNC(=O)c2cccc(S(=O)(=O)NC(C)C)c2)c2ccccc2c1=O
  2.0	-1	-2.0	i	0.72	2	-4.2
> C[C@@H]1C=C(C(=O)NC2CC2)O[C@H](OCc2ccc(CO)cc2)C1
  1.1	-2	-1.2	i	.	0	-0.1
> CC1=C(C(=O)OC2CCCCC2)C(c2ccc(C)o2)C2=C(CCCC2=O)N1 (stereo unspecified)
  0.5	-6	-3.0	.	0.78	0	-0.9
> COc1ccc(N(Cc2cc3cccc(C)c3[nH]c2=O)S(=O)(=O)c2ccc(Cl)cc2)cc1
  -3.7	3	3.6	i	0.75	-3	-2.4
> CCc1ccc(CNC(=O)c2ccc(OC3CCN(C(C)=O)CC3)c(OC)c2)nc1
  -2.4	2	-4.8	i	0.67	-3	-1.2
> O=C(O)/C=C/C(=O)Nc1ccc(OC(F)(F)F)cc1Br
  3.8	2	1.1	i	0.69	.	3.7
> O=C(Nc1ccccc1N1CCOCC1)C1=NN(c2ccccc2)C(=O)CC1
  3.0	4	.	.	0.69	.	4.1
> CCOc1ccc(N2C(=O)CC(N3CCN(c4ccccc4F)CC3)C2=O)cc1 (stereo unspecified)
  0.6	1	4.0	.	0.7	-1	-2.4
> Cc1ccc2c(c1)N(CC(=O)NCCCN1CCCCC1C)C(=O)c1cccnc1O2 (stereo unspecified)
  4.9	2	2.1	i	0.66	-3	-4.3
> O=C(COC(=O)c1ccccc1)Nc1ncc([N+](=O)[O-])s1
  5.3	19	-1.4	i	0.6	10	-63
> Cn1cccc1C(=O)OCC(=O)NCCCc1ccccc1
  -2.7	-3	3.1	i	0.71	-3	2.2
> CC(=O)c1cccc(NC(=S)NC(=O)c2ccccc2)c1
  0.9	-13	0.9	.	0.65	-5	7.6
> S=C(NCCc1ccccc1)NCC1CCCO1 (stereo unspecified)
  -4.3	2	2.0	i	0.69	.	3.4
> CCN(CC)S(=O)(=O)c1cccc(-c2n[nH]c(=S)n2Cc2ccccc2)c1
  0.1	-2	2.5	i	0.67	13	-2.1
> COc1cccc(CN2C(=O)CCC2(C)C(=O)NC2CCCCC2)c1 (stereo unspecified)
  6.0	7	-1.5	i	0.75	-7	-1.0
> CC[C@]12c3[nH]c4ccc(Cl)cc4c3CCN1C(=O)[C@@H](CC(=O)NCCCOC)C[C@@H]2C(=O)N1CCN(C(=O)c2ccco2)CC1
  -1.1	-12	.	i	0.69	.	1.4
> CCOC(=O)CN(C(=O)CNC(=O)c1ccco1)C(C(=O)NC1CCCCC1)c1cccc(OC)c1 (stereo unspecified)
  3.8	-10	-0.3	.	0.75	-2	1.6
> COc1ccc(NC(=O)CSc2nc3ccsc3c(=O)n2CCCCCC(=O)O)cc1
  1.1	5	-6.1	i	0.64	25	0.8
> CC(C)Oc1ccccc1/C=N/NC(=O)C1CCCC1
  .	-15	0.5	i	.	-19	-0.3
> CC(C)(C)C(=O)NCCc1nc2ccccc2n1CC(=O)c1ccccc1
  4.2	8	-1.1	i	0.78	-18	-0.3
> Cc1onc(-c2ccccc2)c1C(=O)NC1CC1
  2.8	-8	.	i	0.64	.	-4.7
> CCn1cc([N+](=O)[O-])c(C(=O)Nc2c(C)nn(Cc3c(F)c(F)c(F)c(F)c3F)c2C)n1
  1.7	-5	1.2	i	0.74	4	0.4
> C=CCNC(=S)NNC(=O)C(CC(C)C)CC(C)O (stereo unspecified)
  1.1	7	-0.7	i	0.64	-39	-0.6
> CNc1ccccc1C(C)(C)c1cc(-c2ccco2)n[nH]1
  4.3	-9	-6.8	i	0.7	?	-1.6
> CCN1CCN(C(=O)CSc2nc3c(c(=O)n(C)c(=O)n3C)n2C)CC1
  1.3	2	-2.1	.	0.68	.	0.4
> Cc1ccc(CCNC(=O)CNS(=O)(=O)c2ccc3nc(C)sc3c2)cc1
  -0.2	3	-1.4	i	0.62	-4	-0.2
> COc1ccc(-c2[nH]ncc2CN2CCC(O)(c3ccc(Cl)cc3)CC2)cc1
  .	0	3.8	i	.	3	3.8
> O=C1NCCc2c1[nH]c1ccccc21
  -17	1	3.0	.	0.68	-41	-3.0
> Cc1ccc(CN2CC(C(=O)NNC(=O)c3ccc(F)cc3)CC2=O)cc1 (stereo unspecified)
  2.4	14	-2.3	i	0.7	7	2.3
> CSc1nc2ccc(NC(=O)c3cc4ccccc4o3)cc2s1
  2.5	-5	-0.6	i	0.67	-6	0.4
> O=C(CCC(=O)c1ccc(Cl)s1)Nc1ncccc1O
  0.8	4	5.5	.	0.64	6	-2.4
> Cc1cc(SCc2ccccc2C)nc(=O)[nH]1
  -0.2	2	-0.3	i	0.69	29	7.1
> NNC(=O)c1ccc(COc2ccc3ccccc3c2)cc1
  0.7	22	2.8	i	0.7	-21	-0.8
> Nc1cc(=O)[nH]c2ncnn12
  .	-3	.	i	.	.	-2.8
> Cc1c(C#N)c2ncn(CCCN(C)C)c(=O)c2n1-c1ccccc1
  -0.9	3	-5.8	.	0.72	0	2.4
> C(/CCc1ccccc1)=N\n1cnnc1
  .	-3	0.8	.	.	-3	2.1
> O=C(NCCCSc1ccccc1)c1cc(Cl)ccc1O
  -65	16	13	i	0.62	-1	-2.6
> O=C(CSc1ccc(Cl)cc1)N1CCC(c2nc3ccccc3s2)CC1
  1.6	-3	-5.9	.	0.72	.	5.8
> O=C(NC1CCCc2ccccc21)C1CCN(S(=O)(=O)c2ccccc2F)CC1 (stereo unspecified)
  2.6	7	-4.5	i	0.74	-4	0.1
> CCn1cc(/C=N\NC(=O)c2ccc(Cl)cc2)cn1
  .	-10	3.4	.	.	-8	0.9
> COc1ccc(NC(=O)CCc2ccccc2)cc1S(=O)(=O)N1CCOCC1
  2.4	-9	0.0	i	0.7	4	2.3
> O=C(/C(=N/N=C/c1ccc(O)c(O)c1O)c1ccccc1)c1ccccc1
  .	3	2.0	i	.	99*	-4.6
> COc1ccc(S(=O)(=O)Nc2nnc(C(C)C)s2)cc1
  4.4	-12	-0.6	.	0.73	.	-3.9
> CCCCOc1ccc(C(=O)NCCCC(=O)N2CCCCC2)cc1
  0.2	-15	2.1	.	0.69	1	4.1
> O=C(CSc1nnc(COc2ccc(Cl)cc2)o1)NC1CCCCC1
  2.8	-3	1.9	i	0.71	0	-1.3
> O=C1CCCc2ccccc2N1Cc1ccccc1
  -1.2	-3	4.4	i	0.69	.	3.2
> CCN(CC)C(=O)c1cncc(C(=O)N(CC)CC)c1-c1ccccc1
  -0.6	3	-3.3	.	0.67	.	3.4
> CCCOC(=O)/C(=C\C=C\c1ccccc1)NC(=O)c1ccccc1
  1.6	2	-5.0	.	0.68	18	-0.7
> Cc1ccc(-n2nc3c(c2NC(=O)CC(C)C)CS(=O)(=O)C3)cc1
  -0.5	4	1.5	i	0.71	-1	0.0
> COc1ccc(N2CCN(c3n[nH]c(N)n3)CC2)cc1
  2.7	-1	-3.7	i	0.68	98*	2.2
> COc1ccc(C/C(=N\OC(C)=O)c2ccc(OC)cc2)cc1
  .	-7	-4.0	.	.	0	2.7
> CCN(CC(=O)NCc1ccc(F)cc1)C(=O)COc1ccc(C)c(C)c1
  4.4	-9	-8.2	.	0.68	-3	7.9
> COc1cc(C=C2C(=O)OC(c3ccccc3)OC2=O)cc(Br)c1O (stereo unspecified)
  9.7	19	0.8	.	0.68	25	-6.1
> CCCN1CCN(C(=S)Nc2ccc(SC(F)F)cc2)CC1
  1.4	3	-2.0	i	0.62	-2	0.9
> CSCCC(NC(N)=O)C(=O)N(C)CC(=O)Nc1ccc(C)cc1 (stereo unspecified)
  3.8	3	-0.9	.	0.73	-6	4.4
> CCCn1nnc(NC(=O)c2cccc(OCC)c2)n1
  2.1	-2	3.0	i	0.63	-2	-1.6
> NC(=O)C1CCN(C(=S)NC2CC3C=CC2C3)CC1 (stereo unspecified)
  -1.3	3	0.4	i	0.68	3	-1.5
> C=CCn1c(CCCOc2ccc(Cl)cc2Cl)nnc1SCC(=O)Nc1nccs1
  4.4	4	-1.6	.	0.74	-2	-0.3
